# From PubChem BioAssay
# CDC25B-CDK2 inh: human CDC25B-CDK2/CyclinA binding inhibition; P30305+P24941; HTRF CDC25B-CDK2/CyclinA binding, anti-His/anti-Flag; stronger effect = higher value; 0.72% of 94,000 active; z-score (no concentration beside the values); AID 1259370;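 further: score is relative to mean and SD of negative controls; strong numbers were not always called active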
# TAR Tat displ: HIV-1 TAR-Tat binding disruption | z-score (test concentration not listed) | AID 1259389 | HIV-1 TAR RNA, Tat peptide displacement FRET; stronger effect = higher value | 0.6% of 100,000 active;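 further: score is relative to mean and SD of negative controls; some compounds called inactive have numbers as strong as hits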
# * = called active by the depositor; nt = no result given.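 How the source made its calls: active means z-score from 3 up in half or more of its runs; inactive means the rest.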
SMILES,CDC25B-CDK2 inh,TAR Tat displ
COc1cc2ccccc2cc1C(=O)Nc1sc2c(c1C#N)CCC2,-0.54,0.99
O=C(Nc1ccc(OCc2cc(=O)n3[nH]cnc3n2)cc1)c1cccs1,nt,0.91
COc1ccc(NC(=O)c2sc3nc4c(cc3c2N)CCC4)cc1,-2.16,0.83
CCn1cc(C(=O)O)c(=O)c2cnc(N3CCN(C(=O)Nc4cccc5ccccc45)CC3)nc21,-5.46,nt
CCOc1ccccc1-c1noc(CSc2nnc(C)n2-c2ccc(F)cc2)n1,-1.06,0.42
COc1ccc(N2CCN(Cc3csc(C)c3C)CC2)cc1,nt,0.72
O=c1c2cccnc2n(Cc2cccc(F)c2)c(=O)n1CCc1ccccc1,-1.29,0.13
Cc1c(C(=O)N2CCCCC2)oc2ccc3c(c12)C(O)CC1(CCCCC1)O3 (stereo not drawn),nt,0.81
Cn1nc(-c2ccc(S(=O)(=O)Oc3cccc([N+](=O)[O-])c3)s2)cc1C(F)(F)F,0.08,nt
CC(C)c1onc(C(=O)N2CCCCC2)c1[N+](=O)[O-],-1.66,1.78
O=C(Nc1nnc2n1CCS2)C1CC(=O)N(c2ccccc2)C1 (stereo not drawn),nt,1.17
CN(CCNc1ccc2nnc(-c3ccccc3)n2n1)C1CCCCC1,-0.3,0.67
Cc1cccc(Nc2c(-c3ccc(C(C)C)cc3)c(=O)c2=O)c1C,nt,2.13
O=C(COc1ccccc1)Nc1nc(C2COc3ccccc3O2)cs1 (stereo not drawn),0.43,-0.41
O=C1COc2cc(-c3c(NC4CCCC4)c(=O)c3=O)ccc2N1,nt,-0.22
COc1ccc(-c2cc3c(=O)n(Cc4nc(-c5ccccc5Br)no4)ncn3n2)cc1,-3.89,1.01
COc1ccccc1CNc1ncnc2c1c(-c1ccccc1)cn2-c1ccccc1,-3.78,nt
CSc1nsc(SC)c1C(=O)N1CCN(S(=O)(=O)c2ccc(C)cc2)C1C (stereo not drawn),-3.53,nt
CCOC(=O)c1c(NC(=O)c2nn(-c3cccc(Cl)c3)ccc2=O)sc2c1CCC2,-0.54,0.57
Cc1ccc(-c2nnc(NCc3ccccc3)c3ccccc23)cc1S(=O)(=O)NCc1cccnc1,0.46,1.26
COc1ccccc1N1COc2cc(C)c(Cl)c(C)c2C1,-0.9,nt
CC(C)(C)NC(=O)Cn1ccc(C(F)(F)F)n1,-1.32,nt
Cc1ccc(Cl)cc1N(CC(=O)N/N=C/c1c(Cl)cccc1Cl)S(C)(=O)=O,0.83,nt
COC(=O)C1CC(=O)N(c2ccc(Oc3ccccc3)cc2)C1 (stereo not drawn),-0.29,nt
CC(=O)O[C@@H]1c2c(ccc3ccc(=O)oc23)OC(C)(C)[C@@H]1OC(=O)CC(C)C,nt,0.26
CC1(C)C(=O)CC[C@@]2(C)C1C[C@@H](O)[C@@]1(C)C3=CC(=O)O[C@@H](c4ccoc4)[C@]3(C)CCC21 (stereo partly drawn),nt,3.02
CNC(=O)CSc1cn(CC(=O)N2CCOCC2)c2ccccc12,nt,0.23
Cc1cn2c(=O)c(S(=O)(=O)Nc3cccc(C)c3C)c(C)nc2s1,nt,-0.34
CC1CSc2ccc(S(=O)(=O)Nc3ccc(Br)cc3F)cc2NC1=O (stereo not drawn),nt,0.61
CCC1CCCCN1C(=O)c1sc2ncn(CC(=O)N3CCCCC3)c(=O)c2c1C (stereo not drawn),nt,1.03
COC(=O)c1cc(NC2c3ncccc3C(=O)N2c2ccc(OC)cc2)cc(C(=O)OC)c1 (stereo not drawn),nt,-0.83
CCCS(=O)(=O)c1nc(S(=O)(=O)c2ccc(C)cc2)c(NCCN2CCOCC2)s1,0.18,-1.75
Cc1ccc2c(c1)N(CC(=O)NCCCN1CCOCC1)C(=O)CO2,-0.02,nt
Cc1cc(-c2ccc(C)c(S(=O)(=O)Nc3cc(F)ccc3F)c2)n[nH]1,nt,2.26
CCSc1ncc(Cl)c(C(=O)Nc2nnc(CC)s2)n1,1.39,1.64
Fc1cc(F)cc(CN2CCc3nc(N4CCN(c5ccccn5)CC4)ncc3C2)c1,nt,0.17
c1ccc(CN2CCC(N3CCCCCC3)CC2)nc1,0.05,nt
CCC(Nc1n[nH]c(=O)[nH]c1=O)C(=O)OC (stereo not drawn),-0.24,0.06
CCOC(=O)c1ccc(N2CCN(c3cc(C)ccc3C)CC2)c(N)c1,-0.33,nt
O=C(c1cc(-c2ccc(F)cc2)on1)N1CCOCC1,-0.77,nt
CC(NC(=O)C1(c2ccccc2)CCCC1)C1COc2ccccc2O1 (stereo not drawn),-0.9,1.71
O=C1C=CC(=O)N1c1cccc2c1CCCC2,-3.54,nt
CNC(=O)c1ccc2c(c1)CCO2,-2.36,nt
N#CC1=C(N)Oc2cc3c(cc2C1c1ccc(OCc2ccc(F)cc2)cc1)OCO3 (stereo not drawn),0.15,nt
O=C(COc1ccc(F)cc1)Nc1nc2c(s1)CCCC2,1.93,1.2
O=C(NCCN1CCCC1)C1CCN(c2ncnc3c2nc2n3CCCCC2)CC1,nt,-2.54
COc1ccc(CCNc2ccc3nnc(C)n3n2)c(OC)c1,-1.36,-1.21
CCc1ccc2c(c1)c(=O)c(S(=O)(=O)c1ccc(F)cc1)cn2C,1.34,0.62
CN1CCN(S(=O)(=O)Cc2cccc(C(F)(F)F)c2)CC1,-1.24,nt
NS(=O)(=O)c1ccc(NC(=O)c2noc3c2CCCC3)cc1,nt,-0.37
CSc1cccc(NC(=O)CCC2=NS(=O)(=O)c3ccccc3N2)c1,nt,0.92
O=c1[nH]c(=O)n(-c2nc(-c3ccccc3)oc2-c2ccccc2)cc1Cl,1.43,0.69
O=C1CSc2ccc(S(=O)(=O)N3CCCc4ccccc43)cc2N1,nt,2.71
O=c1c2nccnc2nc(SCc2cccc(F)c2)n1CC1CCCO1 (stereo not drawn),-1.08,1.4
COc1ccccc1-c1nnc(SCC#CCOC(=O)c2ccc(Cl)cc2)o1,-1.56,0.76
Cc1ccc2nc(N3CCN(c4ccccc4)CC3)c3nncn3c2c1,-0.94,0.4
COc1ccc(Nc2nc(SC)nc(-c3ccccc3)c2C#N)c(OC)c1,-2.73,0.58
O=C(Oc1ccccc1)N1CCCCC1,-0.54,0.21
CC(C)N(C(=O)Cn1c(=O)oc2ccccc21)c1ccccc1,-0.49,0.66
CC(C)NC(=O)C1CCN(c2nnc(N3CCCCC3=O)s2)CC1,nt,1.31

# (continued)
SMILES,CDC25B-CDK2 inh,TAR Tat displ
CS(=O)(=O)Nc1ccc(-c2ccc(S(C)(=O)=O)nn2)cc1,nt,0.21
CN1C(=O)SC(CC(=O)O)C1=O (stereo not drawn),nt,0.98
O=S(=O)(CCN(Cc1ccc(F)cc1)S(=O)(=O)c1ccc(F)cc1)N1CCNCC1,nt,2.93
COc1cc2c(cc1OC)C(C(=O)NC1CC1)C1c3ccccc3CCN1C2=O (stereo not drawn),0.96,nt
CN1C(=O)C(C)(C)c2cc(S(=O)(=O)NCC3CCC(C(=O)NCc4cccs4)CC3)ccc21 (stereo not drawn),nt,1.57
CC(C)CCCC(C)[C@H]1CCC2C3C(=O)C=C4C[C@@H](O)CC[C@]4(C)C3CC[C@@]21C (stereo partly drawn),nt,0.6
CC(C)(C)NC(=O)NCCn1cnc2cc(C(=O)NC3CCCC3)ccc21,nt,-0.45
CC1(C)CC2(CCO1)OC(=O)CC2C(=O)NC1CCCCC1 (stereo not drawn),-1.14,nt
O=C(NCCCN1CCCC1=O)C1CCCN(c2nnc(-n3cccc3)s2)C1 (stereo not drawn),nt,1.16
Cc1ccc(CNS(=O)(=O)c2cc3c(cc2Cl)NC(=O)CO3)o1,nt,-0.09
CCN1CCN(c2nc(NCc3ccccc3Cl)c3cnn(C)c3n2)CC1,nt,1.14
CC1CCCC(NC(=O)C2CCC(CNc3c(N4CCOCC4)c(=O)c3=O)CC2)C1C (stereo not drawn),-0.9,0.85
O=c1[nH]c2ccccc2n1CCCN1CCN(C(c2ccccc2)c2ccccc2)CC1,-0.14,0.9
COc1cccc(Nc2nc(N)nc(CN3CCN(c4ccc(F)cc4)CC3)n2)c1,nt,0.98
O=C(Nc1ccccn1)C(Cc1ccccc1)N1Cc2ccccc2C1=O (stereo not drawn),nt,-1.8
Cc1ccc(Nc2nc(-c3ccncc3)cs2)cc1C,0.09,0.67
CCOC(=O)c1nnc2c(-c3ccc(Br)cc3)c(C)nn2c1C,-0.14,0.13
Cc1nn2c(=O)cc(CSc3nc(-c4ccccc4C)nc4cc(=O)[nH]n34)nc2s1,nt,0.69
O=c1[nH]nc(CSc2ccc([N+](=O)[O-])cc2)[nH]1,-3.96,nt
CCc1cccc(C)c1Nc1c(-c2cccc(O)c2)nc2cnccn12,-0.31,1.03
Cc1ccc(C(C)NC(=O)c2oc3c(c2C)-c2nc(C)sc2CC3)cc1 (stereo not drawn),nt,0.34
COC(=O)c1c(C(=O)OC)c2n(c1C)Cc1ccccc1C2,-0.63,0.98
CCN1CSC(=S)N(Cc2ccc(OC)cc2)C1,-1.43,-0.71
CN(c1ccc(Br)cc1)S(=O)(=O)c1ccc2c(c1)n(C)c(=O)c(=O)n2C,-0.49,-0.26

# Some of these compounds in order of molecular weight, falling.
SMILES,CDC25B-CDK2 inh,TAR Tat displ
CCOC(=O)c1nnc2c(-c3ccc(Br)cc3)c(C)nn2c1C,-0.14,0.13
O=C(Nc1ccccn1)C(Cc1ccccc1)N1Cc2ccccc2C1=O (stereo not drawn),nt,-1.8
CCc1cccc(C)c1Nc1c(-c2cccc(O)c2)nc2cnccn12,-0.31,1.03

# Exported as tab-separated lines: part of the list above
Compound	CDC25B-CDK2 inh	TAR Tat displ
O=C(Nc1ccccn1)C(Cc1ccccc1)N1Cc2ccccc2C1=O (stereo not drawn)	nt	-1.8
Cc1ccc(Nc2nc(-c3ccncc3)cs2)cc1C	0.09	0.67

# More structures:
SMILES,CDC25B-CDK2 inh,TAR Tat displ
CCC(C)[C@H](NC(=O)c1ccco1)C(=O)O (stereo partly drawn),-2.01,nt
O=C(OC1=CN(Cc2ccccc2)S(=O)(=O)c2ccccc21)c1ccccn1,-0.02,2.17
O=C(Nc1ccccc1F)NC1(C(F)(F)F)Oc2ccccc2O1,0.71,nt
Cc1cc2nnc(SCC(=O)Nc3nccs3)n2c2c(C)cccc12,-3.97,1.45
Cn1c(NCc2ccc3c(c2)OCO3)nc2c1c(=O)n(Cc1ccccc1)c(=O)n2C,-0.15,0.03
O=C(COc1ccccc1)Nc1nc2c(s1)CCCC2,0.49,1.36
Cc1onc(-c2ccccc2)c1CNS(=O)(=O)c1c(Cl)nc2sccn12,-0.74,nt
CSc1nsc(SC)c1C(=O)Nc1nn(C)c2cccc(F)c12,-1.74,nt
Oc1ccc(Cl)cc1Nc1nc2ccccc2n2cnnc12,-0.93,-0.33
C#CCn1c(COc2ccccc2)nc2ccccc21,-1.64,2.03
Nc1cc(-c2ccccc2)nn1-c1ccccc1,-0.71,-0.68
O=C(Cn1cnc(S(=O)(=O)N2CCCCC2)c1)N1CCOCC1,nt,0.75
COc1ccc(S(=O)(=O)n2nc(C)c(S(=O)(=O)N3CCCC(C)C3)c2C)cc1OC (stereo not drawn),nt,0.85
Cc1ccc(Cn2c(CO)cnc2SCc2cccc(C)c2)cc1,nt,1.66
Cc1ccc(S(=O)(=O)N2CCN(c3c(C)n(C)c(=O)n(C)c3=O)CC2)cc1C,nt,-0.47
O=S1(=O)N=C(c2ccc(Br)cc2)Nc2ccc(S(=O)(=O)N3CCCCC3)cc21,nt,0.47
Cc1nn2c(=O)cc(CSc3nnc(-c4cccs4)o3)nc2s1,-1.63,1.51
COC(=O)c1cc(NC(=O)/C=C/C(=O)O)ccc1N1CCOCC1,-2.04,nt
Cc1cc(-c2ccccc2)n2ncc(-c3ccccc3)c2n1,-0.15,2.25
COc1cc2ncc(S(=O)(=O)c3ccc(C)cc3)c(N3CCC(C)CC3)c2cc1OC,-0.82,1.68
CCN(CC)CCCNC(=O)c1[nH]c(C)c(C(C)=O)c1C,-0.86,nt
O=C(NCC(c1cccs1)S(=O)(=O)c1ccc(F)cc1)c1cccs1 (stereo not drawn),nt,1.93
CCc1ccc(C2Nc3ccccc3S(=O)(=O)N2Cc2ccccc2)cc1 (stereo not drawn),0.41,-0.2
Cc1nn(CC(=O)NCCc2cccs2)c(=O)c2cccn12,-1.72,2.39
COc1ccc(Nc2nc(-c3ccccn3)cs2)c(OC)c1,1.75,1.54
Cc1c(N)ccc2[nH]c(-c3ccc(N)cc3)nc12,-3.1,2.37
COc1cc(C(=O)N2N=C(C3CC3)CC2(O)C(F)(F)F)cc(OC)c1OC (stereo not drawn),-1.13,nt
CCC(=O)Nc1cc(F)ccc1C,-1.69,nt
CC1=C(C)CC2C(=O)N(c3ccc(N(C)C)cc3)C(=O)C2C1 (stereo not drawn),-1.19,0.79
Cc1cc(=O)n2[nH]c(CN(C(=O)c3ccco3)c3ccc(Cl)cc3)nc2n1,-1.43,-0.61
COc1cccc(N2N=C(C(=O)c3ccccc3)S(=O)(=O)c3ccc(F)cc32)c1,-1.13,1.39
Cc1cc(NC(=O)CCCN2C(=O)c3cccnc3C2=O)no1,-0.45,nt

# Gathered by group, the compounds so far with a thiophene ring, fused or not
SMILES,CDC25B-CDK2 inh,TAR Tat displ
COc1cc2ccccc2cc1C(=O)Nc1sc2c(c1C#N)CCC2,-0.54,0.99
O=C(Nc1ccc(OCc2cc(=O)n3[nH]cnc3n2)cc1)c1cccs1,nt,0.91
COc1ccc(NC(=O)c2sc3nc4c(cc3c2N)CCC4)cc1,-2.16,0.83
COc1ccc(N2CCN(Cc3csc(C)c3C)CC2)cc1,nt,0.72
Cn1nc(-c2ccc(S(=O)(=O)Oc3cccc([N+](=O)[O-])c3)s2)cc1C(F)(F)F,0.08,nt
CCOC(=O)c1c(NC(=O)c2nn(-c3cccc(Cl)c3)ccc2=O)sc2c1CCC2,-0.54,0.57
CCC1CCCCN1C(=O)c1sc2ncn(CC(=O)N3CCCCC3)c(=O)c2c1C (stereo not drawn),nt,1.03
CN1C(=O)C(C)(C)c2cc(S(=O)(=O)NCC3CCC(C(=O)NCc4cccs4)CC3)ccc21 (stereo not drawn),nt,1.57
Cc1nn2c(=O)cc(CSc3nnc(-c4cccs4)o3)nc2s1,-1.63,1.51
O=C(NCC(c1cccs1)S(=O)(=O)c1ccc(F)cc1)c1cccs1 (stereo not drawn),nt,1.93
Cc1nn(CC(=O)NCCc2cccs2)c(=O)c2cccn12,-1.72,2.39
